Screening results from PubChem.
NPYLR7 agonist: mosquito NPYLR7 agonism | HEK293T NPYLR7/Galpha15, GCaMP6s calcium fluorescence | activation, % at 10 µM | 0.15% of 270,000 active | AID 1259423; in the data active = activation above about 40%;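 also: 0% = vehicle and 100% = reference agonist at the receptor; some compounds past the cut are filed as inactive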
NPYLR7 agonist max-min: also measured in NPYLR7 agonist; calls as there; activation, %; measured here: Max-Min RFU normalised activation; some inactives read as strong as hits;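 span of the calcium signal over five minutes; 0% = vehicle and 100% = native peptide agonist; compound fluorescence can raise it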
* hit, by the source's call; & = joins results of further samples. Only part of the results is shown (hit frequency here may not be typical).

molecule,NPYLR7 agonist,NPYLR7 agonist max-min
O=c1[nH]c(CSc2nnc(C3CC3)n2C2CC2)nc2ccccc12,3,7
COC(=O)c1cc(OC)c(OC)c(OC)c1-n1c(C)cc(C(N)=O)c1C,11,8
Cn1nnc2c(=O)n(CC(=O)NCc3ccccc3)cnc21,1,10
CCc1ccc2oc(Br)c(CC(=O)Nc3cccnc3)c2c1,-5,-4
O=C1OC(c2ccccc2)=NC1=C1C=C(c2ccccc2)OC(c2ccccc2)=C1,4&-12,52&-11
CCCn1c(SCc2nc(-c3cccs3)no2)n[nH]c1=O,6,4
CC1=C(C(=O)N2CCCC(C(=O)c3ccc(-c4ccccc4)cc3)C2)OCCO1 (stereo not given),15&-3,8&-4
C/C(=N/Nc1nc(-c2ccc(F)cc2)cs1)c1nonc1C,3,4
CCN1C(=O)NC(c2ccc(Cl)cc2Cl)C2=C1CN(CC(=O)O)C2=O (stereo not given),-11,-8
Cc1ccc(C2c3sc4ccccc4c3OC(=N)C2C#N)o1 (stereo not given),8,1
CCc1nc(-c2ccccc2)nc(N2CCN(C(=O)c3cccs3)CC2)c1Cc1ccccc1F,3,10
O=C(COc1cccc(Oc2ccccn2)c1)Nc1ccc(Cl)cn1,16,12
NC(=O)c1ccccc1NC(=O)c1ccc(COc2ccc3c(c2)CCC3)o1,1,-1
O=C(CN1CCC[C@H]1CN1CCCC1)NCCc1ccc(F)cc1,21,13
O=C(Nc1cccc(Cl)c1)N1CCSC1c1ccc(Cl)cc1Cl (stereo not given),18,23
Cc1ccc(Cc2nsc(N3CCCN(C(=O)C(C)(C)CCl)CC3)n2)cc1,14,13
O=C1NC(Cc2ccccc2)(C2CCNCC2)C(=O)N1Cc1ccncc1 (stereo not given),13,-7
CCN(CC1CCCN(CCc2cccc(OC)c2)C1)C(=O)CSc1ccncc1 (stereo not given),1,0
Cc1ccc(CN2C(=O)C(C)Oc3cccnc32)cc1 (stereo not given),6,4
CCn1nc(C)c(CNCc2c(C(=O)N3CCCCCC3)nc3cc(C)ccn23)c1C,13,16

Record cards (already shown). Order of screens: NPYLR7 agonist, NPYLR7 agonist max-min
Record of `O=C(CN1CCC[C@H]1CN1CCCC1)NCCc1ccc(F)cc1` = 21, 13
Record of `CCCn1c(SCc2nc(-c3cccs3)no2)n[nH]c1=O` = 6, 4

Remaining list, next part
molecule,NPYLR7 agonist,NPYLR7 agonist max-min
COc1ccc(CC2(CCC(=O)N(C)C(C)c3ccon3)CCC(=O)N2)c2ccccc12 (stereo not given),8,7
O=C(NCC(F)(F)C(F)(F)F)c1ccc(-c2cccc(C(F)(F)F)c2)s1,3,-1
O=C1CC(C(=O)CBr)C2(CCCCC2)O1 (stereo not given),-2,-5
CC(C)(C)c1cc2nc(C(F)(F)F)cc(N3CCN(Cc4cc(=O)[nH]c(C5CC5)n4)CC3)n2n1,-4,-6
O=C(N/N=C\c1ccc([N+](=O)[O-])o1)c1ccc(O)cc1,-4&-3,-9&-7
O=C(CCc1nc2ccccc2s1)N1CCc2c([nH]c3ccccc23)C1c1ccccn1 (stereo not given),0&-2,-3&-5
COc1cc(Cl)c(C)cc1-n1ccnc(NCCc2ccccc2)c1=O,-5,-7
COc1ccc(C(=O)N2C[C@@H](O)[C@H](NCCCc3ccccc3)C2)cc1,-1,-1
NC(=S)NCc1ccco1,0,1
CSc1nnc2c(n1)OC(c1cccc(Br)c1)Nc1ccccc1-2 (stereo not given),0,-2
COc1ccc(CN(CCc2c[nH]c3ccccc23)C(=O)CN(C(=O)c2cccc(Br)c2)C(C)C)cc1,25,23
CN(c1ccc(F)c(F)c1)S(=O)(=O)c1ccc2nc[nH]c(=O)c2c1,2,0
O=C(CSc1ccc2nnc(-c3cccs3)n2n1)Nc1nccs1,-2,-3
CC(C)COCC(O)CN(Cc1cccc(C(F)(F)F)c1)CC1CC(c2ccc3c(c2)OCO3)=NO1 (stereo not given),-3,4
CCOc1ccc(-n2c(=O)[nH]c3c(C(N)=O)nc(-c4cccc(OCC)c4O)nc32)cc1,22,8
COCCN(CC1CCN(Cc2ccccc2F)CC1)C(=O)c1ccc2c(c1)OCCO2,-6,-10
COc1cc(NC(=O)c2c(C)noc2C)c(OC)cc1Cl,1,7
Cc1noc2c1C(c1ccsc1)C(C#N)C(N)=N2 (stereo not given),4,4
CC(=O)c1ccc2c(c1)N(Cc1c(C)noc1C)C(=O)C(C)S2 (stereo not given),-2,-6
CCN(CC)c1ccc(CN(C(=O)Nc2ccccc2OC)C2CC2)c(OS(=O)(=O)CC)c1,15,16
CCc1noc(C(C)N2CCN(c3ncnc4c3cnn4C)CC2)n1 (stereo not given),5,4
COCCNC(=O)Cn1nc(C(C)C)c2cnn(-c3ccccc3)c2c1=O,0,1
CC1Oc2c(cccc2C(=O)N2CCOC(c3ccc(Br)cc3)C2)NC1=O (stereo not given),4,5
Cn1cccc1-c1nnc(SCCC2CCCCC2)o1,-6,-11
CCOC(=O)c1cc(-c2ccccc2C)n(-c2ccc(C(=O)NCc3ccncc3)cc2)n1,3,0
Cc1nc2c(-c3ccccc3)cnn2c(Nc2ccccc2)c1C,0,-3
CC1CN(CC(=O)Nc2ccc(F)c(F)c2)CCO1 (stereo not given),2,9
Cc1cccc(CS(=O)(=O)NCCCN2CCN(c3ccccc3)CC2)c1,-10,-12
Cc1ccccc1-n1c(SCCCC(=O)N2CCN(C(=O)c3cccc(F)c3)C(C)C2)nnc1-c1ccccc1 (stereo not given),-4,2
O=C(CN1CCN(c2ccccc2F)CC1)N1N=C(c2ccccc2)CC1c1ccc2c(c1)OCO2 (stereo not given),-1,2
CC1CN(c2cc(Oc3ccc(F)c(Cl)c3)ncn2)CCN1C(=O)c1ccc(C(F)(F)F)cc1 (stereo not given),10,8
O=C(NCc1ccccc1Cl)c1ccc(Cl)cc1N1CCCC1=O,3,2
COc1ccc(/C=C2N=C(/C=C/c3ccc(Cl)cc3)OC/2=O)cc1OC,-9,-12
O=C(CCn1ccc2ccccc21)N1CCN(S(=O)(=O)c2cccc(F)c2)CC1,1,6
Cc1c(C)c(C)c(S(=O)(=O)NC2CCN(CC(F)(F)F)C2)c(C)c1C (stereo not given),4,3
O=C(NCCc1ccccc1Br)c1ccn[nH]1,13,6
Cn1nnc2c(=O)n(CC(=O)N3CCCC3)cnc21,1,13
COC(=O)CSc1nnc(-c2ccc(Br)cc2)o1,2,12
CC(=O)n1cc(/C=C2/C(=O)NC(=S)N(c3cccc4ccccc34)C2=O)c2ccccc21,-3,-15
COc1ccc(CC(=O)NNC(=O)C(C)(C)c2ccccc2)cc1,2,0
Cc1sc(NC(=O)c2cccnc2)nc1-c1ccc(OC(F)F)cc1,1,-6
O=C(CCc1cnccn1)NC1CCCc2c1cnn2-c1ccc(F)cc1F (stereo not given),-6,-7
O=c1c2cnc3ncnn3c2ccn1-c1ccc(Oc2ccccc2)cc1,0,5
COc1cccc(C2=NN(C(=O)CN3CCOCC3)C(c3ccccc3F)C2)c1 (stereo not given),-1,2
CN1N=C(C(=O)NCc2ccc(Cl)cc2Cl)CCC1=O,-1,-1
CCC(=O)C1=C(c2ccc(OC)cc2)N(C(=O)CC)n2cnnc2S1,7,5
N#Cc1cccc(C(=O)Nc2ccccc2Nc2ccccc2)c1,2,-3
CCOC(=O)C1=C(C)NC2=C(C(=O)CCC2)C1c1coc2ccc(Cl)cc2c1=O (stereo not given),-12,-17
COc1ccc(CC(=O)Nc2ccc(Nc3cc(OC)nc(C)n3)cc2)cc1,11,3
O=[N+]([O-])c1ccc(N2CCCCC2)cn1,0,7
CCCNC(=O)N1CCN(c2cc(Cl)nc(SCC(=O)NCCc3ccc(OC)c(OC)c3)n2)CC1,15,18
O=C(CSc1nnc(NC(=O)C2CC2)s1)Nc1nnc(-c2ccc(Cl)cc2Cl)s1,0,12
C[C@@H]1[C@H]2C[C@@H](C[C@H]1NC(=O)Cc1cnc[nH]1)C2(C)C,7,9
COc1ccc(Cl)cc1N1CCN(Cc2cccc(C(=O)NCCN(C)C)c2)CC1,6,5
CCC(CC)C(=O)N(C)c1c(C)nc2c(OCC=C(C)C)cccn12,0,-5
COc1cc(/C=C/c2nc3cc(Cl)ccc3o2)ccc1OCC#N,-1,25
O=C1NCC(=O)N2C[C@H](NC(=O)C3(c4ccc(Cl)cc4)CCC3)C[C@@H]12,-2,-5
O=C(O)c1cc2c(s1)CCC2,3,1
COc1cc(CN2CCn3nc(C(=O)N4CCN(c5cccc(Cl)c5)CC4)cc3C2=O)cc(OC)c1,13,2
CC1CN(S(=O)(=O)c2ccc3c(c2)S(=O)(=O)N=CN3)CCO1 (stereo not given),0,0

Single entries from the list.
For NPYLR7 agonist max-min, O=C1NCC(=O)N2C[C@H](NC(=O)C3(c4ccc(Cl)cc4)CCC3)C[C@@H]12 reads -5
For NPYLR7 agonist max-min, O=[N+]([O-])c1ccc(N2CCCCC2)cn1 reads 7
For NPYLR7 agonist, CC1CN(S(=O)(=O)c2ccc3c(c2)S(=O)(=O)N=CN3)CCO1 (stereo not given) reads 0
For NPYLR7 agonist, COc1cc(CN2CCn3nc(C(=O)N4CCN(c5cccc(Cl)c5)CC4)cc3C2=O)cc(OC)c1 reads 13

(listing goes on)
molecule,NPYLR7 agonist,NPYLR7 agonist max-min
CCC(Sc1ncc(S(=O)(=O)c2ccc(C(C)C)cc2)c(=O)[nH]1)C(=O)Nc1ccc(C)cc1 (stereo not given),-16,-14
CC(C)C(=O)NNC(=O)c1ccc(Br)cc1,12,8
Cc1cccc(C(=O)N(Cc2cccc(OCc3nc(CO)cs3)c2)C2CC2)c1,23,36
CNC(=O)c1ccc(Nc2c(Oc3ccc(OC)cc3)cnn(-c3ccc(F)cc3)c2=O)cc1,-11,-9
COc1ccc2sc(SCc3csc(Cc4ccc(Cl)c(Cl)c4)n3)nc2c1,23,20
CC1CN(C(=O)CN2CCc3sccc3C2c2cccc(F)c2)CCN1C(=O)Nc1ccc(C(F)(F)F)cc1 (stereo not given),9,0
CN1CC2(CCCN(C(=O)CC3=CSC4=NCCCN34)CC2)OC1=O (stereo not given),2,1
COc1ccc(C2C(C#N)C(=N)SC(=N)C2C#N)cc1OC (stereo not given),11&20,6&16
Cc1c(NCc2cccnc2)cccc1C(=O)N1C[C@@H](C)O[C@@H](C)C1,22,8
COC(=O)C1CCN(C(c2ccc(C)cc2)C2Sc3ncnn3C2=O)CC1 (stereo not given),5,4
CCOC(=O)C(C)(NC(=O)C1CC1C)C(C)C (stereo not given),2,493
Cc1nc2c(c(=O)c3ccccc3n2C)c(=O)n1C1CCCCCC1,8,5
COc1cc(Cl)c(S(=O)(=O)N2CCN=C2C)cc1Cl,0,8
COCc1nc(NC(C)c2c(C)n[nH]c2C)c2cnn(C)c2n1 (stereo not given),3,1
COC(=O)CNC(=O)COC(=O)c1ccc(Br)o1,1,-2
O=C(NCCCNC(=O)[C@H]1CCCN1C(=O)c1cccc(F)c1)c1ccc(F)cc1,14,18
CC(C)c1ccc(NC(=O)C(C2CCCC2)N2CCN(C(=O)C3CC3)CC2)cc1 (stereo not given),-4,1
COc1ccc(CN2CCC2(C)C(=O)Nc2cccc(NS(C)(=O)=O)c2)cc1 (stereo not given),3,-2
CCCOc1cccc(C2c3c(-c4ccccc4O)n[nH]c3C(=O)N2C)c1 (stereo not given),-10,-11
COC(=O)CC(=O)N1CCN(CC(OCc2ccc(C(F)(F)F)cc2)c2ccc(Cl)cc2)CC1 (stereo not given),4,0
CCN(CC(C)C#N)C(=O)Nc1ccccc1N(C)CC (stereo not given),4,4
CCOc1ccc(-c2nnc(NC(=O)C(C)(C)C)s2)cc1,-3,-9
COc1cccc(CNC(=O)CSc2ccc(NC(=O)c3ccc(C)cc3)nn2)c1,-1,-3
Cc1ccc(C)c(S(=O)(=O)NC2(c3ccccc3)CCC2)c1,-23,-24
CCOC(=O)CC1COCCN1Cc1cn[nH]c1-c1cc2ccccc2o1 (stereo not given),1&-3,-1&-6
Cn1cccc1C1(C(F)(F)F)NCCNC1=O (stereo not given),0,-3
N#Cc1cccnc1Sc1nnc(-c2cccs2)n1CC(N)=O,1,0
C=CCC(=O)N1CCOC(Cc2ccccc2)C1 (stereo not given),1,1
COc1cccc(C2=NN(S(C)(=O)=O)C(c3ccccc3OC)C2)c1 (stereo not given),1,-1
Cc1cc(=O)[nH]c(-n2nc(C3CC3)cc2NC(=O)c2cccc3ccccc23)n1,-2,-3
Cc1nn(C2CCS(=O)(=O)C2)c(Cl)c1/C=C1/CCc2ccccc2C1=O (stereo not given),3,3

Four of the compounds above, field by field:
molecule: Cc1ccc(C)c(S(=O)(=O)NC2(c3ccccc3)CCC2)c1
  NPYLR7 agonist: -23	NPYLR7 agonist max-min: -24

molecule: CCOC(=O)CC1COCCN1Cc1cn[nH]c1-c1cc2ccccc2o1 (stereo not given)
  NPYLR7 agonist: 1&-3	NPYLR7 agonist max-min: -1&-6

molecule: Cn1cccc1C1(C(F)(F)F)NCCNC1=O (stereo not given)
  NPYLR7 agonist: 0	NPYLR7 agonist max-min: -3

molecule: N#Cc1cccnc1Sc1nnc(-c2cccs2)n1CC(N)=O
  NPYLR7 agonist: 1	NPYLR7 agonist max-min: 0
